GALR2 ag – GALR2 (human) receptor agonism. O43603. GALR2-expressing cells, agonist activation read-out. activation, %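 (tested at 5 µM)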. 0.48% of 140,000 active. AID 803;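 active = above mean plus 3 SD of all compounds, about 5% in these data, not always enough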;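 note: 0% = vehicle buffer wells and 100% = reference agonist at full effect; tested in CHO reporter cells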
PKD1 kinase inh – blocks activity of human protein kinase D1 | PKD1 kinase fluorescence polarization assay | 0.056% of 200,000 active | Q15139 | AID 797 | inhibition, %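 (about 10 µM by stock and volumes)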;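 active = inhibition of 50% or more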;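 note: controls were vehicle for no effect and a reference inhibitor for full effect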
Target sequence (Q15139 whole entry, looked up): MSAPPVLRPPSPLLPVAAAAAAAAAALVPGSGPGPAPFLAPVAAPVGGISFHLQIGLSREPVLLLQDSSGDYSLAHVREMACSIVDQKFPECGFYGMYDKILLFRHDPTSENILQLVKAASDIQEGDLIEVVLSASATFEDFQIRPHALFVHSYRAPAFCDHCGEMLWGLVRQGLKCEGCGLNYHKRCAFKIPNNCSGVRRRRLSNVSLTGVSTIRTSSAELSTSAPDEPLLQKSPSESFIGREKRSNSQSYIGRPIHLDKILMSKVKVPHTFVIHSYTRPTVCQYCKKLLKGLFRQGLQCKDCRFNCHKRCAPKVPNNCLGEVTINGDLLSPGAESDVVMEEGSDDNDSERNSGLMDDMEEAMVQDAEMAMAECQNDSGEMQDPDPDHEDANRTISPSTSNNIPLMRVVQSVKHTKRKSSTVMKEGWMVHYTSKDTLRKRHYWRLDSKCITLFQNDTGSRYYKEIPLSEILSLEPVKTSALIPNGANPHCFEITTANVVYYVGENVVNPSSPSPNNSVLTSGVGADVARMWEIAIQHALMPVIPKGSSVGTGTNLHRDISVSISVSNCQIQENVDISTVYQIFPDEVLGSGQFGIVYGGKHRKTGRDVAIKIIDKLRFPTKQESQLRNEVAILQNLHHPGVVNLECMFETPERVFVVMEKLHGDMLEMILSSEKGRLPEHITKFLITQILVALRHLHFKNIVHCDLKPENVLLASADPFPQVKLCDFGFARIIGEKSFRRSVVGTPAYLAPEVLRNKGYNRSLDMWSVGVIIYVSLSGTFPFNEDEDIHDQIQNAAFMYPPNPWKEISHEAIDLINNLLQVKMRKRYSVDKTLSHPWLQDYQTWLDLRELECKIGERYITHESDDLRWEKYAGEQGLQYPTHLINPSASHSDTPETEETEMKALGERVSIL
RGS16-Gao – regulators of human RGS16-Galphao interaction; O15492+P09471; binding response (% of control), % at 10 µM; AID 1441; bead-based flow cytometry RGS16-Galphao binding, fluorescence; actives lie on both sides; 0.38% of 220,000 active;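 active = below 25% or above 175%, edge rows of some plates excepted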;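 note: Galphao activated by GDP with aluminum fluoride before binding; 100% = wells without compound and 0% = beads without RGS; some results beyond the cut were filed as inactive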
INS promoter inh – TRM-6 insulin promoter activity inhibition. TRM-6 cells (human fetal islet line), insulin promoter-eGFP reporter, imaging; reporter expression induced with tamoxifen. inhibition, % at 2 µM. 0.9% of 130,000 active. AID 1273;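 active = inhibition above the mean plus 3 SD, with well images judged a real hit on visual review, cut at about 60% in these data, passing the limit was not always enough; inconclusive = inhibition over the cutoff but images rejected on review; inactive = inhibition not above the cutoff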
HSV replic up – HSV replication enhancement. maximum fold increase. AID 1956. 0.005% of 220,000 active. HSV replication augmentation in cells, fold increase;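 active = peak rise of 1.5-fold or more in the series; inconclusive = self-fluorescent or not available for retest; tested in PC3 cells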;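 note: first round at 10 µM; read as green reporter fluorescence; hits show the peak of a series up to 25 µM; 1 = signal of infected wells without compound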
INS promoter inh cell count – recorded beside INS promoter inh, whose call it bears; normalized cell count, %; measured here: cell count, toxicity; reference of the scale not given here;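 cells exposed to compound for 48 h; stained nuclei by imaging scaled within each plate; lower means fewer cells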
HSV replic up primary fold – second read-out of HSV replic up, no call of its own (marks repeat the call); fold increase; compound at 10 µM; measured here: primary screen fold increase 10 uM; tested in PC3 cells;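 GFP signal in the first replicate; 1 = infected wells without compound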
Active calls of the source: *; i = inactive; ? = inconclusive; . = not tested or not shown.

SMILES | GALR2 ag | PKD1 kinase inh | RGS16-Gao | INS promoter inh | INS promoter inh cell count | HSV replic up | HSV replic up primary fold
Cc1ccc(C(=O)c2cc([N+](=O)[O-])ccc2N2CC(C)OC(C)C2)cc1 (centres undefined) | 0.1 | 5 | 100 | . | . | i | 0.77
O=C(Cn1nnc2ccccc21)c1ccc(Cl)cc1 | . | . | 92 | . | . | i | 0.84
O=C(Nc1cc(Cl)ccc1O)C1CCCO1 (centres undefined) | -0.8 | -5 | 95 | 62 | 97 | i | 0.95
CCCC(=O)Nc1nc2ccc(OC)cc2s1 | -1.0 | 1 | 101 | 57 | 113 | i | 1
CCCCNS(=O)(=O)c1ccc(NC(=O)C2CCCO2)cc1 (centres undefined) | -0.6 | 0 | 70 | . | . | i | 0.98
Cc1ccc(NC(=O)CN(C)C(=O)c2ccc(S(=O)(=O)N(C)c3ccccc3)cc2)cc1 | . | 1 | 116 | 14 | 105 | i | 0.98
CCOC(=O)c1cc2c(=O)n3ccccc3nc2n(CC(C)C)c1=NC(=O)c1ccco1 | 4.5 | 0 | 98 | 3 | 102 | i | 0.83
O=C(Nc1ccc2c(c1)OCO2)c1cc(-c2cccnc2)nc2ccccc12 | . | 2 | 99 | . | . | i | 0.96
CC(C)C1Oc2ccccc2N(CC(=O)NCCCN2C(C)CCCC2C)C1=O (centres undefined) | -3.8 | -6 | 101 | . | . | i | 0.85
CC(C)(C)c1ccc(CN2C3=NCCCN3c3ccccc32)cc1 | -0.5 | -10 | . | -62 | 77 | i | 0.76
COc1ccc(N2CCN(C(=O)Nc3ccccc3C)CC2)cc1 | . | -7 | 105 | 11 | 75 | i | 1.1
COC(=O)C1=C(C(=O)OC)N2C=CC=CC2(C)C(C(=O)OC)=C1C(=O)OC (centres undefined) | -0.5 | -1 | 104 | -27 | 70 | i | 0.95
COc1ccnc(CSC(N)=Nc2ccccc2C(F)(F)F)c1 | -0.5 | -5 | 101 | 46 | 103 | i | 0.99
Cc1cc(Cl)ccc1OCCCC(=O)N1CCCCC1 | -1.0 | 2 | 84 | -180 | 137 | i | 0.94
O=C1CCCC/C1=C/Nc1ccc(S(=O)(=O)Nc2ncccn2)cc1 | 0.2 | -4 | 75 | 5 | 34 | i | 0.86
COc1nccc(C(F)(F)F)c1C(=O)NC(=O)Nc1c(C)cccc1C | . | . | 99 | . | . | i | 1.2
O=C(CCCC(=O)N1CCCc2ccccc21)N1CCCc2ccccc21 | -2.9 | -10 | 98 | . | . | i | 1
CCN1CCc2nc(NC(=O)c3ccccc3)sc2C1 | -0.7 | -1 | 98 | 3 | 118 | . | .
CCOc1ccc(C(CC(=O)O)NC(=O)c2ccco2)cc1OC (centres undefined) | -1.6 | 2 | 101 | -35 | 71 | i | 1
O=c1[nH]cnc2sc3c(c12)CCCCC3 | . | -8 | 99 | . | . | i | 0.95
COC(=O)CC1C(=O)NCCN1C(=S)NC(=O)C(c1ccccc1)c1ccccc1 (centres undefined) | -1.6 | 13 | 99 | . | . | i | 0.98
CC(C)N1C(=O)CCC1C(=O)N1CCN(c2ccc(F)cc2)CC1 (centres undefined) | . | . | 108 | . | . | i | 0.91
CN(C)CC(O)COc1ccc(-c2ccc(C#N)cc2)cc1 (centres undefined) | -1.6 | 1 | 100 | 19 | 86 | i | 0.99
Cn1c(=O)c2cnc(-c3ccc(C(F)(F)F)cc3)nc2n(C)c1=O | . | . | 100 | . | . | i | 0.91
O=C(Nc1ccc(NC(=O)c2ccco2)nc1)c1cccnc1 | -1.1 | -3 | 105 | -61 | 148 | i | 0.88
CCOc1cc(C2c3c(oc4cc(C)c(Cl)cc4c3=O)C(=O)N2Cc2ccco2)ccc1O (centres undefined) | 1.1 | 3 | 99 | 7 | 70 | i | 0.85
Cc1ccc(C)c(NC(CC(=O)c2ccccc2)C(=O)OCC(=O)c2cccs2)c1 (centres undefined) | -0.7 | 6 | 99 | . | . | i | 0.91
CN(CCNC(=O)CN1C(=O)CSc2ccc(S(=O)(=O)N3CCCC3)cc21)Cc1ccccc1 | . | -5 | 95 | -79 | 61 | i | 0.93
O=C(CSc1nnc(CNc2ccc(Cl)cc2)o1)Nc1nc2c(s1)CCCC2 | -2.0 | -4 | 108 | 4 | 111 | i | 0.94
CCOC(=O)c1csc(NNC=O)n1 | -1.7 | -7 | 84 | . | . | i | 1
COc1ccc(/C=C/C(=O)NC(=S)NNC(=O)c2cc(OC)c(OC)c(OC)c2)cc1 | . | . | 108 | . | . | i | 1
C/C=C(/C)C(=O)O[C@@H]1[C@H](OC(C)=O)c2c(ccc3ccc(=O)oc23)OC1(C)C | 1.9 | -6 | 107 | 5 | 109 | i | 0.54
Cc1cc(C)c(OCC(=O)Nc2ccccc2N2CCOCC2)c(C)c1 | 1.1 | 5 | 104 | . | . | i | 0.83
O=C(CN1CCCCC1)Nc1cccc(Br)c1 | -0.8 | -11 | 95 | -59 | 115 | i | 1
COc1ccc(OCCn2c(=N)n(CCO)c3ccccc32)cc1 | -2.7 | -9 | 108 | -58 | 88 | i | 0.9
C=C(CC)C(=O)c1ccc(OCC(=O)O)c(Cl)c1Cl | -1.5 | -11 | 105 | 50 | 121 | i | 0.89
COc1cc(OC)cc(C(=O)NCc2ccc3c(c2)cc(C)n3C)c1 | . | 2 | 96 | -28 | 110 | ? | .
CN(/N=C/c1ccco1)C1=NS(=O)(=O)c2ccccc21 | . | -2 | 80 | -73 | 70 | i | 0.91
Cc1ccccc1OCC(=O)Nc1sc2c(c1C#N)CCC2 | -2.5 | 21 | 99 | 54 | 83 | i | 0.84
Cc1ccc(NC(=O)C2C3CCCC2C3c2ccccc2)c(C)c1 (centres undefined) | -0.8 | -13 | 104 | -40 | 77 | i | 0.94
Cc1ccc(N=C2NC(=O)CC(C(=O)Nc3ccc4c(c3)OCO4)S2)cc1 (centres undefined) | . | -8 | 53 | 42 | 70 | i | 0.98
Cc1nn(-c2ccc(F)cc2)c2sc(C(=O)O)cc12 | 0.2 | -12 | 96 | -38 | 181 | i | 0.96
CC(Sc1nnc(NCc2ccccc2)s1)C(=O)Nc1ccc2c(c1)C(=O)c1ccccc1C2=O (centres undefined) | -1.9 | 5 | 94 | -100 | 57 | i | 1
CCOc1ccc(CCNC(=O)C2=C(C)C(=O)OC23CCCCC3)cc1OCC | . | -6 | 100 | -67 | 101 | i | 1.1
COc1ccc(NC(=O)CSCc2ccccc2C)cc1 | -0.2 | -8 | 102 | -5 | 153 | i | 0.94
CCN(CC(=O)Nc1ccc(NC(C)=O)cc1)C(=O)/C=C/c1cccs1 | -1.1 | -3 | 89 | . | . | i | 1
COc1cc(C2C3=C(CC(C)(C)CC3=O)NC3=C2C(=O)c2ccccc23)ccc1O (centres undefined) | . | 2 | 102 | . | . | i | 0.82
CC(C)CSc1ccc(S(=O)(=O)NCC(=O)O)cc1[N+](=O)[O-] | . | -2 | 96 | . | . | i | 1.1
COc1ccccc1NS(=O)(=O)c1cc(N2Cc3ccccc3C2=N)ccc1N1CCOCC1 | . | -4 | 97 | 13 | 85 | i | 0.77
CCOc1ccc(C(=O)NC(=S)Nc2cccc(S(=O)(=O)NC3=NCCC3)c2)cc1 | . | 6 | 106 | . | . | i | 0.73

Six of the compounds above, tab-delimited:
compound	GALR2 ag	PKD1 kinase inh	RGS16-Gao	INS promoter inh	INS promoter inh cell count	HSV replic up	HSV replic up primary fold
CC(Sc1nnc(NCc2ccccc2)s1)C(=O)Nc1ccc2c(c1)C(=O)c1ccccc1C2=O (centres undefined)	-1.9	5	94	-100	57	i	1
CCOc1ccc(CCNC(=O)C2=C(C)C(=O)OC23CCCCC3)cc1OCC	.	-6	100	-67	101	i	1.1
COc1ccc(NC(=O)CSCc2ccccc2C)cc1	-0.2	-8	102	-5	153	i	0.94
CCN(CC(=O)Nc1ccc(NC(C)=O)cc1)C(=O)/C=C/c1cccs1	-1.1	-3	89	.	.	i	1
COc1cc(C2C3=C(CC(C)(C)CC3=O)NC3=C2C(=O)c2ccccc23)ccc1O (centres undefined)	.	2	102	.	.	i	0.82
CC(C)CSc1ccc(S(=O)(=O)NCC(=O)O)cc1[N+](=O)[O-]	.	-2	96	.	.	i	1.1

(list continues)
SMILES | GALR2 ag | PKD1 kinase inh | RGS16-Gao | INS promoter inh | INS promoter inh cell count | HSV replic up | HSV replic up primary fold
CC(C)(C)c1[nH]nc2c1C(c1cccnc1)C(C#N)=C(N)O2 (centres undefined) | -2.5 | 0 | 95 | . | . | i | 0.9
CSc1nnc(C)c(/C=C/Nc2ccc(F)cc2F)n1 | . | 2 | 102 | . | . | i | 0.87
O=C(CNc1ccc2ccccc2c1)N/N=C/c1ccc([N+](=O)[O-])o1 | 0.2 | -12 | 179 | -41 | 63 | i | 0.74
CC12CCC(C/C1=N\N=C1\NC(=O)/C(=C\c3cccc(Br)c3)S1)C2(C)C (centres undefined) | -1.5 | 9 | 107 | . | . | i | 0.89
COc1ccc(N2CCN(c3oc(-c4ccco4)nc3C#N)CC2)cc1 | -1.4 | 4 | 110 | 57 | 134 | i | 0.82
CCCCNC(=O)N1CCN(C(=O)c2ccco2)CC1 | . | -2 | 94 | . | . | i | 1.1
COc1ccc2c(CC(=O)OCC(=O)N3CCc4ccccc43)coc2c1 | -1.5 | -6 | 100 | . | . | i | 1.2
O=C(NNS(=O)(=O)c1ccccc1[N+](=O)[O-])c1cccnc1 | . | . | 106 | . | . | i | 1.1
COc1ccccc1NC(=O)C(CCS(C)(=O)=O)N1C(=O)c2ccccc2C1=O (centres undefined) | -0.4 | -1 | 96 | . | . | . | .
S=C1NC[C@H](CC2CCCCC2)N1CCc1cccc2ccccc12 | . | . | 107 | . | . | i | 0.89
COc1ccc(N2CCN(C(=O)CSc3ncnc4c3cnn4-c3ccccc3C)CC2)cc1 | -1.2 | 0 | 92 | . | . | i | 1.1
COc1ccc(Cl)cc1NC(=S)N(CCCN1CCOCC1)Cc1cn(C)c2ccccc12 | -0.5 | -8 | 98 | -13 | 89 | i | 0.62
NNC(=O)c1cc2ccccc2cc1O | -0.5 | 5 | 97 | 49 | 92 | i | 0.94
O=C(OCC(=O)N1CCN(C(=O)c2ccco2)CC1)c1ccccc1Cc1ccccc1 | -1.0 | -10 | 83 | . | . | i | 1
O=C(CCCn1c(=O)c2sccc2n(CC(=O)NCC2CCCO2)c1=O)NCc1ccco1 (centres undefined) | . | 7 | 97 | 61 | 104 | i | 0.89
NC(=S)N=Nc1c(O)n(Cc2ccccc2)c2ccccc12 | -0.5 | -8 | 107 | . | . | i | 0.92
O=C(Nc1nc2ccc(F)cc2s1)c1cccc(S(=O)(=O)N2CCc3ccccc32)c1 | -0.9 | 4 | 109 | 3 | 87 | i | 0.96
N=c1c2c(-c3ccccc3)c(-c3ccccc3)n(Cc3ccccc3)c2ncn1CCCn1ccnc1 | 3.0 | 1 | 100 | . | . | i | 0.6
Cc1nc(NC(=O)/C=C/c2ccc(Cl)cc2Cl)sc1C(=O)N(C)C | -0.1 | -9 | 100 | -50 | 85 | i | 1
Cc1ccccc1SCC(=O)OCC(=O)Nc1ccc(N(C)C)cc1 | . | -7 | 98 | . | . | i | 1
NS(=O)(=O)c1ccc(NC(=O)CN2CCCCC2)cc1 | -0.8 | -9 | 103 | . | . | i | 1.1
COCCn1c(Cc2ccccc2)nnc1SCC(=O)Nc1ccccc1 | . | -4 | 100 | . | . | i | 0.97
COC(=O)[C@H](C)NC(=O)Nc1cc(OC)ccc1OC | -0.4 | -1 | 100 | 14 | 151 | i | 0.97
Cc1ccc(-n2nnnc2Sc2nc([N+](=O)[O-])nn2C)cc1C | -0.6 | -12 | 103 | -16 | 87 | i | 0.85
CCOC(=O)CC(NC(=O)Cn1nnc(-c2ccccc2Cl)n1)c1ccc(OC)cc1 (centres undefined) | . | -4 | 99 | 31 | 43 | i | 0.86
O=C1OC2(CCCC2)OC(=O)C1=Cc1c[nH]c2ccccc12 | . | -9 | 100 | -152 | 96 | i | 0.96
CC(C)=CC(=O)OCc1cc([N+](=O)[O-])cc2c1OCOC2 | . | -5 | 95 | . | . | i | 0.88
CN(CC(=O)Nc1ccccc1Cl)C(=O)CSc1nc2ccccc2s1 | -2.7 | -2 | 53 | . | . | i | 0.96
COCCn1c(SCC(=O)NCc2cccs2)nnc1-c1ccc(OC)cc1 | -1.2 | -1 | 100 | -19 | 116 | i | 1

Screening results deposited in PubChem BioAssay by several laboratories.

Not a hit list. Share with any hit: about 1.3%.
